HIV Env fusion – inhibitors of HIV-1 Env-driven cell-cell fusion, primary screen, HeLa-JRFL effector, CEM21 target cells, luciferase; inhibition, % at 12.3 µM; 360,000 tested, 1.1% active;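 active = mean replicate inhibition score of at least 50 and every replicate individually at or above 50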;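 also: 0% = plate neutral controls and 100% = maraviroc near 300 nM; one replicate is shown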
Yeast UUG start – modulators of yeast start codon fidelity, primary screen, whole organism, S. cerevisiae, single point, plate reader. activity score, % at 18.7 µM. 350,000 tested, 0.13% active. S. cerevisiae UUG-firefly luciferase reporter, luminescence/redox ratio;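 active = replicate mean at a twofold rise or more, about +100% in these data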;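 also: firefly luciferase made from a UUG start codon reports start codon fidelity; reporter light over untreated wells divided by growth signal over untreated wells; some hits fall short of that in this replicate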
Active calls of the source: *; [ ] = dose if it differs, or a comment.

Results for C[C@H](CO)N1C[C@H](C)[C@@H](CN(C)S(=O)(=O)c2ccc(Cl)cc2)OCCCC[C@H](C)Oc2ccc(NS(=O)(=O)c3ccc(F)cc3)cc2C1=O ?
HIV Env fusion: -2[16.7 µM]; Yeast UUG start: 31

How did C[C@@H]1CN([C@@H](C)CO)C(=O)c2cccc(NC(=O)Nc3ccccc3)c2O[C@@H]1CN(C)CC1CCCCC1 do in these assays?
HIV Env fusion: -13[16.7 µM]; Yeast UUG start: -5

How did CNC[C@H]1Oc2ccc(N(C)C)cc2CC(=O)N([C@@H](C)CO)C[C@@H]1C do in these assays?
HIV Env fusion: -6[16.7 µM]; Yeast UUG start: 27

How did Cc1noc(C)c1NC(=O)Nc1ccc2c(c1)C(=O)N([C@H](C)CO)C[C@@H](C)[C@H](CN(C)Cc1ccccc1)OCCCC[C@H](C)O2 do in these assays?
HIV Env fusion: 21[16.7 µM]; Yeast UUG start: 5

How did CN(C)CC(=O)N[C@@H]1CC[C@H](CCNC(=O)C2CCC2)O[C@H]1CO do in these assays?
HIV Env fusion: -14[16.7 µM]; Yeast UUG start: -9

How did C[C@@H]1CN([C@@H](C)CO)C(=O)c2cc(NS(=O)(=O)c3ccc(Cl)cc3)ccc2O[C@@H](C)CCCCO[C@H]1CN(C)S(=O)(=O)c1ccccc1 do in these assays?
HIV Env fusion: -33[16.7 µM]; Yeast UUG start: 4

Results for CC(=O)N(C)C[C@@H]1Oc2cc(C#CC3(O)CCCC3)ccc2S(=O)(=O)N([C@H](C)CO)C[C@H]1C ?
HIV Env fusion: -9[16.7 µM]; Yeast UUG start: 2

Results for CC(C)C#Cc1cnc2c(c1)C(=O)N([C@@H](C)CO)C[C@@H](C)[C@@H](CN(C)C(=O)CCN1CCCCC1)O2 ?
HIV Env fusion: 11[16.7 µM]; Yeast UUG start: 13

What do the screens show for `COCC(=O)Nc1ccc2c(c1)C(=O)N(C)[C@H]1CC[C@@H](CC(=O)Nc3cn(C)nc3C)O[C@@H]1CO2`?
HIV Env fusion: 6[16.7 µM]; Yeast UUG start: -15

Results for CN1C(=O)c2cc(NS(=O)(=O)c3ccccc3Cl)ccc2OC[C@H]2O[C@H](CC(=O)O)CC[C@@H]21 ?
HIV Env fusion: 8[16.7 µM]; Yeast UUG start: -9

What do the screens show for `CC(C)NC(=O)Nc1ccc2c(c1)C(=O)N([C@@H](C)CO)C[C@H](C)[C@H](CN(C)S(=O)(=O)c1cn(C)cn1)OCCCC[C@@H](C)O2`?
HIV Env fusion: -9[16.7 µM]; Yeast UUG start: 14

Results for CCCC(=O)Nc1ccc2c(c1)C(=O)N(C)C[C@H](OC)[C@H](C)CN(CCC)[C@@H](C)CO2 ?
HIV Env fusion: -20[16.7 µM]; Yeast UUG start: -6

How did C[C@@H]1CCCCO[C@H](CN(C)Cc2ccc(C(=O)O)cc2)[C@H](C)CN([C@@H](C)CO)C(=O)c2cc(NS(C)(=O)=O)ccc2O1 do in these assays?
HIV Env fusion: -3[16.7 µM]; Yeast UUG start: 8

How did C[C@H]1CN([C@@H](C)CO)C(=O)c2cc(-c3cccc(C(=O)N(C)C)c3)cnc2O[C@@H]1CN(C)S(=O)(=O)c1ccccc1 do in these assays?
HIV Env fusion: 10[16.7 µM]; Yeast UUG start: 6

How did CCCN(C)C[C@H]1Oc2cc(C#CCOC)ccc2S(=O)(=O)N([C@@H](C)CO)C[C@H]1C do in these assays?
HIV Env fusion: -6[16.7 µM]; Yeast UUG start: 6

Two consecutive records out of the list so far:
Results for CCCC(=O)Nc1ccc2c(c1)C(=O)N(C)C[C@H](OC)[C@H](C)CN(CCC)[C@@H](C)CO2 ?
HIV Env fusion: -20[16.7 µM]; Yeast UUG start: -6

How did C[C@@H]1CCCCO[C@H](CN(C)Cc2ccc(C(=O)O)cc2)[C@H](C)CN([C@@H](C)CO)C(=O)c2cc(NS(C)(=O)=O)ccc2O1 do in these assays?
HIV Env fusion: -3[16.7 µM]; Yeast UUG start: 8

New compounds follow:
Results for O=C(N[C@@H]1C=C[C@@H](CC(=O)N2CCc3ccccc3C2)O[C@H]1CO)C1CCC1 ?
HIV Env fusion: 9[16.7 µM]; Yeast UUG start: -1

What do the screens show for `CO[C@@H]1CN(C)C(=O)c2cc(NS(C)(=O)=O)ccc2OC[C@@H](C)N(CC2CCOCC2)C[C@@H]1C`?
HIV Env fusion: -14[16.7 µM]; Yeast UUG start: -1

Results for COc1ccc(NC(=O)Nc2cccc3c2O[C@@H](CN(C)S(=O)(=O)c2cn(C)cn2)[C@H](C)CN([C@H](C)CO)C3=O)cc1 ?
HIV Env fusion: -17[16.7 µM]; Yeast UUG start: 8

Results for CCCNC(=O)N1[C@@H](C#N)[C@H](c2ccc(-c3ccc(C(=O)N(C)C)cc3)cc2)[C@@H]1CO ?
HIV Env fusion: 26[16.7 µM]; Yeast UUG start: 12

How did C[C@@H]1CN([C@@H](C)CO)C(=O)c2cccc(NC(=O)C3CCCCC3)c2O[C@@H]1CN(C)Cc1ccc(-c2ccccc2)cc1 do in these assays?
HIV Env fusion: -29[16.7 µM]; Yeast UUG start: 9

How did CC(C)NC(=O)Nc1ccc2c(c1)C(=O)N([C@@H](C)CO)C[C@@H](C)[C@H](CN(C)C(=O)c1ccccc1)OCCCC[C@@H](C)O2 do in these assays?
HIV Env fusion: -3[16.7 µM]; Yeast UUG start: 0

What do the screens show for `Cc1ccc(S(=O)(=O)Nc2ccc3c(c2)CC(=O)N([C@@H](C)CO)C[C@@H](C)[C@@H](CN(C)S(=O)(=O)c2cccs2)O3)cc1`?
HIV Env fusion: -11[16.7 µM]; Yeast UUG start: -1

What do the screens show for `C[C@@H]1CN([C@H](C)CO)C(=O)Cc2cc(NS(=O)(=O)c3cccs3)ccc2O[C@@H]1CN(C)S(=O)(=O)c1cn(C)cn1`?
HIV Env fusion: -4[16.7 µM]; Yeast UUG start: -5

Results for C[C@@H]1CN([C@@H](C)CO)C(=O)Cc2cc(NC(=O)Nc3cccc4ccccc34)ccc2O[C@@H]1CN(C)C(=O)NC1CCCCC1 ?
HIV Env fusion: 0[16.7 µM]; Yeast UUG start: 22

How did C[C@@H]1CN([C@@H](C)CO)S(=O)(=O)c2ccc(C#Cc3ccccc3)cc2O[C@H]1CN(C)C(=O)CN(C)C do in these assays?
HIV Env fusion: 21[16.7 µM]; Yeast UUG start: 2

Results for C[C@@H]1CN([C@@H](C)CO)C(=O)c2cc(NC(=O)CCN3CCOCC3)ccc2O[C@@H]1CN(C)S(=O)(=O)c1ccc(F)cc1 ?
HIV Env fusion: 4[16.7 µM]; Yeast UUG start: 11

How did CO[C@H]1CN(C)C(=O)c2cc(NC(C)=O)ccc2OC[C@H](C)N(C(=O)c2ccccn2)C[C@@H]1C do in these assays?
HIV Env fusion: 24[16.7 µM]; Yeast UUG start: -15

How did C[C@H]1CN([C@@H](C)CO)C(=O)c2cc(-c3cccc(C(=O)N(C)C)c3)cnc2O[C@H]1CN(C)S(=O)(=O)c1cccc(F)c1 do in these assays?
HIV Env fusion: 6[16.7 µM]; Yeast UUG start: -7

What do the screens show for `C[C@@H]1CN([C@H](C)CO)C(=O)Cc2cc(NC(=O)Cc3ccccc3)ccc2O[C@H]1CN(C)Cc1ccc(Oc2ccccc2)cc1`?
HIV Env fusion: -15[16.7 µM]; Yeast UUG start: 11

What do the screens show for `O=C(CN1CCOCC1)NCC[C@@H]1CC[C@H](NS(=O)(=O)c2ccc(Cl)cc2)[C@H](CO)O1`?
HIV Env fusion: -39[16.7 µM]; Yeast UUG start: -2

How did CCCC(=O)Nc1ccc2c(c1)OC[C@@H](C)N(C(=O)CC)C[C@@H](C)[C@H](OC)CN(C)C2=O do in these assays?
HIV Env fusion: -1[16.7 µM]; Yeast UUG start: 0

Results for COCC#Cc1cnc2c(c1)C(=O)N([C@H](C)CO)C[C@H](C)[C@H](CN(C)Cc1ccccc1)O2 ?
HIV Env fusion: -1[16.7 µM]; Yeast UUG start: -2

Results for C[C@@H]1CN([C@H](C)CO)C(=O)c2cc(NC(=O)Nc3ccc(C(F)(F)F)cc3)ccc2O[C@@H](C)CCCCO[C@H]1CN(C)C(=O)NC1CCCCC1 ?
HIV Env fusion: -23[16.7 µM]; Yeast UUG start: 7

Results for C[C@@H]1CCCCO[C@@H](CN(C)C(=O)c2ccccc2)[C@@H](C)CN([C@H](C)CO)C(=O)c2cc(NC(=O)Nc3ccc4c(c3)OCO4)ccc2O1 ?
HIV Env fusion: 5[16.7 µM]; Yeast UUG start: 15

How did COc1ccc(NC(=O)Nc2ccc3c(c2)C(=O)N([C@@H](C)CO)C[C@@H](C)[C@@H](CN(C)C(=O)NC2CCCCC2)OCCCC[C@@H](C)O3)cc1 do in these assays?
HIV Env fusion: 22[16.7 µM]; Yeast UUG start: -3

Results for COc1ccc(CN(C)C[C@H]2Oc3ccc(NS(=O)(=O)c4ccccc4)cc3CC(=O)N([C@@H](C)CO)C[C@H]2C)cc1 ?
HIV Env fusion: -2[16.7 µM]; Yeast UUG start: 3

What do the screens show for `CO[C@H]1CN(C)C(=O)c2cc(NC(=O)C3CCOCC3)ccc2OC[C@H](C)NC[C@H]1C`?
HIV Env fusion: 11[16.7 µM]; Yeast UUG start: 13

Results for Cc1cc(C(=O)Nc2cccc3c2O[C@H](CN(C)C)[C@@H](C)CN([C@H](C)CO)C3=O)n(C)n1 ?
HIV Env fusion: 5[16.7 µM]; Yeast UUG start: -4

Results for N#C[C@H]1[C@@H](c2ccc(C#Cc3ccc(F)cc3)cc2)[C@H](CO)N1C(=O)Nc1ccc(F)cc1 ?
HIV Env fusion: 0[16.7 µM]; Yeast UUG start: 6

What do the screens show for `C[C@@H]1CCCCO[C@@H](CN(C)C(=O)Cc2ccccc2)[C@@H](C)CN([C@H](C)CO)C(=O)c2cc(NC(=O)Nc3cccc4ccccc34)ccc2O1`?
HIV Env fusion: 1[16.7 µM]; Yeast UUG start: -7

What do the screens show for `C[C@H]1CN([C@@H](C)CO)C(=O)c2cccc(NC(=O)Nc3ccc(F)cc3)c2O[C@H]1CN(C)Cc1ccc(-c2ccccc2)cc1`?
HIV Env fusion: -3[16.7 µM]; Yeast UUG start: -2

What do the screens show for `C[C@@H]1CN([C@H](C)CO)C(=O)c2cccc(NC(=O)c3nc4ccccc4s3)c2O[C@H]1CN(C)Cc1ccc(Cl)c(Cl)c1`?
HIV Env fusion: 29[16.7 µM]; Yeast UUG start: -2

Results for C[C@H]1CCCCO[C@@H](CN(C)C(=O)C2CCCCC2)[C@@H](C)CN([C@@H](C)CO)C(=O)c2cc(NC(=O)c3ccncc3)ccc2O1 ?
HIV Env fusion: -32[16.7 µM]; Yeast UUG start: 8

Results for C[C@H]1CN([C@@H](C)CO)C(=O)Cc2cc(NS(C)(=O)=O)ccc2O[C@H]1CN(C)Cc1ccc(C(F)(F)F)cc1 ?
HIV Env fusion: 36[16.7 µM]; Yeast UUG start: -7

Results for C[C@H]1CN([C@@H](C)CO)C(=O)c2cc(-c3ccc(C#N)cc3)cnc2O[C@@H]1CN(C)Cc1cncnc1 ?
HIV Env fusion: -17[16.7 µM]; Yeast UUG start: -2

What do the screens show for `COCCOC(=O)N1C(=O)[C@@]2(c3ccccc31)[C@H](C(=O)N1CCN(c3ncccn3)CC1)[C@H]1C(=O)O[C@H](c3ccccc3)[C@H](c3ccccc3)N1[C@@H]2c1ccccc1OCCO`?
HIV Env fusion: 7[16.7 µM]; Yeast UUG start: -15

How did CC(C)CC#Cc1cnc2c(c1)C(=O)N([C@@H](C)CO)C[C@@H](C)[C@H](CN(C)Cc1ccccn1)O2 do in these assays?
HIV Env fusion: -2[16.7 µM]; Yeast UUG start: -3

What do the screens show for `C[C@@H]1CN([C@H](C)CO)C(=O)c2cc(C#CC3CC3)cnc2O[C@@H]1CN(C)C(=O)Cc1ccccn1`?
HIV Env fusion: -18[16.7 µM]; Yeast UUG start: 6

How did CS(=O)(=O)N1[C@H](C#N)[C@H](c2ccccc2)[C@@H]1CO do in these assays?
HIV Env fusion: 2[16.7 µM]; Yeast UUG start: 1

What do the screens show for `CN(C)C(=O)C[C@H]1C[C@@H]2c3cc(NC(=O)C4CCOCC4)ccc3O[C@@H]2[C@H](CO)O1`?
HIV Env fusion: 21[16.7 µM]; Yeast UUG start: 11

How did COC(=O)C[C@@H]1C[C@H]2c3cc(NS(=O)(=O)c4ccc(F)cc4)ccc3O[C@H]2[C@H](CO)O1 do in these assays?
HIV Env fusion: -21[16.7 µM]; Yeast UUG start: 10

What do the screens show for `CC(C)NC(=O)Nc1ccc2c(c1)CC(=O)N([C@@H](C)CO)C[C@@H](C)[C@@H](CN(C)C(=O)Nc1ccc(F)cc1)O2`?
HIV Env fusion: -3[16.7 µM]; Yeast UUG start: 8

Results for COCCNC(=O)C[C@H]1C[C@H]2c3cc(NC(=O)C4CCOCC4)ccc3O[C@H]2[C@H](CO)O1 ?
HIV Env fusion: 37[16.7 µM]; Yeast UUG start: 5

Among those listed so far, these have a Cl atom:
Results for C[C@H](CO)N1C[C@H](C)[C@@H](CN(C)S(=O)(=O)c2ccc(Cl)cc2)OCCCC[C@H](C)Oc2ccc(NS(=O)(=O)c3ccc(F)cc3)cc2C1=O ?
HIV Env fusion: -2[16.7 µM]; Yeast UUG start: 31

How did C[C@@H]1CN([C@@H](C)CO)C(=O)c2cc(NS(=O)(=O)c3ccc(Cl)cc3)ccc2O[C@@H](C)CCCCO[C@H]1CN(C)S(=O)(=O)c1ccccc1 do in these assays?
HIV Env fusion: -33[16.7 µM]; Yeast UUG start: 4

Results for CN1C(=O)c2cc(NS(=O)(=O)c3ccccc3Cl)ccc2OC[C@H]2O[C@H](CC(=O)O)CC[C@@H]21 ?
HIV Env fusion: 8[16.7 µM]; Yeast UUG start: -9

What do the screens show for `O=C(CN1CCOCC1)NCC[C@@H]1CC[C@H](NS(=O)(=O)c2ccc(Cl)cc2)[C@H](CO)O1`?
HIV Env fusion: -39[16.7 µM]; Yeast UUG start: -2

What do the screens show for `C[C@@H]1CN([C@H](C)CO)C(=O)c2cccc(NC(=O)c3nc4ccccc4s3)c2O[C@H]1CN(C)Cc1ccc(Cl)c(Cl)c1`?
HIV Env fusion: 29[16.7 µM]; Yeast UUG start: -2

Screens (PubChem)

These rows are one share of the data (hit frequency here may not be typical).
